Lassa entry inh = Lassa virus entry inhibition. AID 540256. Lassa virus pseudotype entry inhibition, cell reporter; control for the full effect not named in the record. actives 1.2% (n = 300,000). Potency, µM (highest dose often 37.9 µM), without a hit: top-dose activity change, negative = inhibition, hits mostly inhibitors; active means well fitted inhibition curve with a large enough effect; inconclusive means small, poorly fitted or top-dose-only effect, or effect the other way; inactive means flat fitted curve, though single readings scatter; tested in HEK293 cells; also: % is scaled to controls: 0 for no effect and ±100 for the full control effect; nearly all actives have a fitted effect of over 50% in size; luciferase read-out
Cruzain inh noDet = blocks cruzain activity in detergent-free assay. purified cruzain, Z-FR-AMC fluorescence, no detergent. Potency, µM, without a hit: max response, negative = inhibition, most hits filed as inhibitors. actives 2.3% (n = 200,000). P25779. AID 1476; active = well fitted curve in the direction sought with a large enough effect; inconclusive = small, poorly fitted or top-dose-only effect, or another doubt; inactive = no such curve, though single readings can be large; an effect the other way counts as inactive or inconclusive;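 also: plate controls were enzyme without inhibitor for no effect and buffer without enzyme for full effect; nearly all actives have a fitted effect of over 40% in size; top concentration of the series not given in the record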
Target sequence (P25779 123-467 limits assumed): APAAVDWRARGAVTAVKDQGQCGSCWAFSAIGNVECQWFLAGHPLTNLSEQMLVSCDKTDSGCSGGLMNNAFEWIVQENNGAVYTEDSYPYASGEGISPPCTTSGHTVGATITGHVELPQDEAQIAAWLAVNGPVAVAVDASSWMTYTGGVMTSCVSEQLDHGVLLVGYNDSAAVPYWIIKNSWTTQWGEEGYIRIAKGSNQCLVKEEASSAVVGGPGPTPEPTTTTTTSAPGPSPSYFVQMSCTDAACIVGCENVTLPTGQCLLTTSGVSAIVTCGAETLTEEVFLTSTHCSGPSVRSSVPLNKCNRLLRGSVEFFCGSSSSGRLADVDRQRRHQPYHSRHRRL
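Purified cruzain at 1.5 nM, pre-incubated 15 min with compound at room temperature in 100 mM sodium acetate pH 5.5, 5 mM DTT, 0.00005% Triton X-100. Reaction started with 2 uM Z-FR-AMC; AMC fluorescence increase over 60 s gives rate.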
RE007 growth inh = less growth of the S. pombe RE007 Vpr strain. S. pombe RE007 Vpr strain, BacTiter-Glo ATP luminescence, 24 h; control for the full effect not named in the record. Potency, µM (doses to about 92.2 µM), for inactives: at the top dose activity change, negative = less growth. actives 0.21% (n = 360,000); active = well fitted falling curve with a large enough effect; inconclusive = small, poorly fitted or top-dose-only effect; inactive = no such curve, though single readings can be large or run the other way;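 also: % is scaled to controls: 0 for no effect and ±100 for the full control effect; nearly all actives have a fitted effect of over 50% in size; the assay follows cell death caused by Vpr and the record does not say whether a fall means rescue or toxicity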
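Fission yeast strain RE007, carrying one chromosomally integrated HIV-1 vpr copy, was seeded at OD 0.01 in PMG+AL medium with 23 nL pinned compound. After 24 h at 30 °C and 99% humidity, viability was read by BacTiter-Glo luminescence.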
NS1 inh = influenza NS1 inhibition; actives 0.4% (n = 270,000); Potency, µM (series often up to 46.1 µM), without a hit: top-dose activity, positive = more growth; S. cerevisiae slowed by influenza A NS1, growth recovery by OD600; also: actives are rising curves; nearly all actives have a fitted effect of over 50% in size
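Growth recovery, yeast-based: influenza A NS1 expressed in S. cerevisiae causes slow growth, and suppressors are detected by OD600. The parent strain without NS1 is used as positive control.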
Cruzain inh Det = inhibitors of Trypanosoma cruzi cruzain with detergent | P25779 | purified cruzain, Z-FR-AMC fluorescence, 0.01% Triton | Potency, µM, for inactives: max response, negative = inhibition, usual class: inhibitors | actives 0.43% (n = 200,000) | AID 1478; active = well fitted curve in the direction sought with a large enough effect; inconclusive = small, poorly fitted or top-dose-only effect, or another doubt; inactive = no such curve, though single readings can be large; an effect the other way counts as inactive or inconclusive;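 also: plate controls were neutral wells for no effect and buffer without enzyme for full effect; nearly all actives have a fitted effect of over 40% in size; top concentration of the series not given in the record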
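Purified cruzain (1.5 nM final) was preincubated with compounds for 15 min at room temperature in 100 mM sodium acetate pH 5.5, 5 mM DTT, 0.01% Triton X-100. Reaction started with 2 uM Z-FR-AMC; AMC fluorescence change over 60 s gave activity.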
SARS PLP yeast = blocks SARS-CoV papain-like protease in a yeast assay; S. cerevisiae expressing SARS-CoV PLpro, growth rescue; control for the full effect not named in the record; Potency, µM (titrated, usually from 32.9 µM), without a hit: at the top dose activity, positive = growth rescue; actives 0.19% (n = 330,000); AID 485353; also: 0% is about no effect; nearly all actives have a fitted effect of over 55% in size; growth read by luminescence after 48 h
2A StopGo = FMDV 2A StopGo reporter, luciferase signal. human cells with a luciferase reporter of 2A StopGo recoding; control for the full effect not named in the record. Potency, µM (top dose mostly 57.9 µM), for inactives: at the top dose signal change, negative = less light. actives 1.2% (n = 410,000). AID 1159524; active = well fitted falling curve with a large enough effect; inconclusive = small, poorly fitted or top-dose-only effect; inactive = no such curve, though single readings can be large or run the other way; tested in HEK293T cells; also: % is scaled to controls: 0 for no effect and ±100 for the full control effect; nearly all actives have a fitted effect of over 45% in size; luciferase light after 4 h
Marburg entry inh = blocks Marburg virus binding to or entry into cells | Potency, µM (series often up to 37.8 µM), for inactives: at the top dose activity change, negative = inhibition, most hits filed as inhibitors | actives 1.8% (n = 300,000) | Marburg virus pseudotyped entry inhibition, cell reporter; control for the full effect not named in the record; about a third of the inactives were read at about 46 µM; active = well fitted inhibition curve with a large enough effect; inconclusive = small, poorly fitted or top-dose-only effect, or effect the other way; inactive = flat fitted curve, though single readings scatter; tested in HEK293 cells; about a fifth of its hits are not listed in these tables; also: % is scaled to controls: 0 for no effect and ±100 for the full control effect; luciferase read-out
* hit, by the source's call; ? = inconclusive; nt = no result given; & = joins results of further samples; [ ] = dose if it differs, or a comment. Unless noted, calls follow the shape of the dose curve; as a rule, active means well fitted rising curve with a large enough effect; inconclusive means small, poorly fitted or top-dose-only effect; inactive means no such curve, though single readings can be large or run the other way. Potency is read from the fitted curve at half-maximal effect.

SMILES	Lassa entry inh	Cruzain inh noDet	RE007 growth inh	NS1 inh	Cruzain inh Det	SARS PLP yeast	2A StopGo	Marburg entry inh
COc1ccc(CN2C(=O)c3cccnc3C2=O)cc1S(=O)(=O)N1CC(C)CC(C)C1 (configuration not stated)	nt	nt	-7%	3%	nt	1%	-1%	nt
CCc1ccc(-c2nc(SCC(=O)NCCOC)c(-c3ccc(C)cc3)[nH]2)cc1	2%[46.1 µM]	-1%	nt	nt	-0.3%	nt	-11%	4%[46.1 µM]
Cc1ccc(-n2c3nc(=O)[nH]c(=O)c-3cc3cc([N+](=O)[O-])ccc32)cc1C	?	11%	1%	6%	-8.0%	11%	28µM*	?
c1cc(C2N3CCCN2CC3)ccn1 (configuration not stated)	nt	0%	nt	-4%&-2%	-2.0%	-1%	-16%	nt
O=C1c2ccccc2C(=O)c2c1ccc1c(=O)n(C3CCCCC3)[nH]c21	0%	?	?	1%	-11%	-6%	-29%	2%
CN1CCc2nc(N)c(C#N)c(-c3ccccc3)c2C1	2%	-7%	-10%	4%	-0.1%	19%	-6%	-9%
Cc1ccc(-n2c3c(cc(C(=O)Nc4ccccc4C(N)=O)c2=O)C(=O)CC(C)(C)C3)cc1	28%[46.1 µM]	-2%	nt	nt	-5.4%	nt	-2%	1%[46.1 µM]
CCC(c1nnnn1C(C)(C)C)N1CCN(C(=O)c2ccco2)CC1 (configuration not stated)	-5%	nt	-20%	-8%	nt	-5%	14%	-3%[46.1 µM]
COc1ccccc1CNC(=O)c1ccccc1OCc1ccc(F)cc1	-21%	7%	21%	6%	-1.3%	-13%	?	?
COc1ccc(S(=O)(=O)c2c(O)c3ccc(C(=O)Nc4ccc(F)cc4)cc3[nH]c2=O)cc1	nt	nt	19%	?	nt	-1%	-24%	nt
O=C(NC(=S)NCCc1ccccc1)c1cccc(Cl)c1	2%	nt	-18%	2%	nt	0%	41%[activator]	23%
O=[N+]([O-])c1cc(/C=N/n2cnnc2)ccc1N1CCCC1	nt	nt	13%	-1%	nt	0%	-7%	nt
CCOC(=O)N1CCN(C(=O)C2CCC(=O)N(CCc3ccccc3)C2)CC1 (configuration not stated)	-3%	nt	-6%	nt	nt	nt	-4%	11%
Cc1cc(-c2cc(C(=O)NCc3ccccc3)on2)nc(NCC2CC2)n1	nt	nt	-9%	-4%	nt	0%	17%	nt
O=C(NCc1ccccc1)c1ccccc1NC(=O)C1CCCCC1	0%	nt	9%	-72%	nt	-9%	-9%	13%
CCN(CC)CCOC(=O)c1ccc(NC(=O)c2ccc(Cl)c(S(=O)(=O)N3CCCCCC3)c2)cc1	?	nt	3%	nt	nt	0%	?	?
Cn1c(=O)c2sccc2n(Cc2ccccc2)c1=O	1%	nt	-7%	-20%	nt	4%	?	-17%
Clc1cccc(/C(Cc2nc3ccccc3[nH]2)=N\Nc2ccccc2)c1	8%	?	58%	23%	-12%	nt	-2%	?
CCN(Cc1ccccc1)C(=S)NC(=O)c1ccccc1Br	-30%[46.1 µM]	nt	9%	-53%	nt	-4%	3%	-16%[46.1 µM]
Cc1cc2c(cc1C)C(c1cccc(OC(C)C)c1)CC(=O)N2 (configuration not stated)	?	8%	nt	nt	-9.0%	nt	-18%	?
Cc1ccc(/C=C(\NC(=O)c2ccccc2)C(=O)N2CCCCC2)cc1	nt	nt	11%	-3%	nt	0%	8%	nt
COc1ccc2[nH]c3c(c2c1)CC(C)NC3=O (configuration not stated)	nt	nt	-2%	-8%	nt	-2%	10%	nt
COc1ccccc1OCCn1c(C)c(C=O)c2ccccc21	nt	nt	-3%	-7%	nt	-2%	?	nt
CCOC(=O)Cn1c(=O)c2c(nc3n2CCCCN3c2ccc(OCC)cc2)n(C)c1=O	4%	nt	-6%	-4%	nt	nt	9%	2%[46.1 µM]
CCOC(=O)N1CCN(C(=O)CSc2ccc(-c3ccccc3OC)nn2)CC1	?	nt	20%	nt	nt	2%	?	-19%

Next results.
SMILES	Lassa entry inh	Cruzain inh noDet	RE007 growth inh	NS1 inh	Cruzain inh Det	SARS PLP yeast	2A StopGo	Marburg entry inh
COc1ccccc1NC(=O)Cc1nc(CCl)cs1	-10%	-2%	-17%	4%	-1.4%	-9%	-12%	5%
Cc1no[n+]([O-])c1COc1ccccc1/C=C1\NC(=S)NC1=O	-4%	-10%	-4%	21%	-16%	-1%	-21%	-11%
CCOC(=O)C(NCCc1ccccc1F)(NC(=O)CC)C(F)(F)F (configuration not stated)	0%	22%	-10%	-52%	3.5%	-50%	-25%	18%
Cc1ccc(C2=NC3(CCCC3)NC2=S)cc1	?	nt	-24%	-1%	nt	-1%	29%	16%[46.1 µM]
O=C(Nc1cccc(F)c1)NC1(C(=O)NCC2CCCO2)CCCCC1 (configuration not stated)	-9%[46.1 µM]	nt	-14%	10%	nt	-4%	13%	?
CCCC(=O)Nc1nnc(S(=O)(=O)N(C)Cc2ccc(Cl)cc2)s1	7%[46.1 µM]	-5%	nt	nt	-0.9%	nt	11%	nt
CCn1c(SCc2nc(-c3ccccc3)no2)nc2ccccc21	nt	3%	-2%	-73%	-6.7%	1%	-16%	nt
O=C(NCCO)c1nsnc1NCCCl	13%	nt	-5%	2%	nt	1%	-10%	0%[14.2 µM]
COc1ccc(C(=O)NC(=O)Nc2cc(C)ccn2)cc1	?	-2%	4%	-22%	1.7%	-3%	nt	?
O=C(c1cn(-c2ccccc2)nc1-c1cccnc1)N1CCCCC1	-1%	-1%	-8%	-9%	1.5%	-1%	9%	-10%
Cc1cccc(N2CCN(S(=O)(=O)c3cnc[nH]3)CC2)c1C	nt	-2%	6%	-8%	-1.3%	8%	-25%	nt
COc1cc(C(=O)NCc2cc3ccccc3n2C)cc(OC)c1OC	nt	nt	-9%	27%	nt	0%	-27%	nt
CCc1ccc(-c2nc(CN3CCC(C(=O)NCCc4ccc(C)cc4)CC3)c(C)o2)cc1	?	-6%	nt	nt	1.8%	nt	-25%	2%[46.1 µM]
Cc1ccc(C(=O)CCC(=O)Nc2cccc(C(F)(F)F)c2)cc1C	-15%	nt	3%	nt	nt	nt	-2%	0%
O=C(Nc1nnc(-c2ccccc2Cl)s1)c1ccccc1F	nt	nt	-7%	-12%	nt	1%	47%[activator]	nt
C=CCn1c(Cc2cccs2)nnc1SCC(=O)Nc1ccc(OC)c(OC)c1	-13%	-1%	3%	-5%	4.8%	7%	-22%	-9%&-9%
COc1ccccc1OCCn1nnc2ccccc21	?	nt	80%	-2%	nt	3%	53%[activator]	14%
COc1cccc(-c2ncc3ccccc3c2COC(=O)c2ccccc2C(=O)O)c1	nt	nt	-9%	nt	nt	-2%	-25%	6%
Cc1ccccc1CCNC(=O)c1ccc2c(c1)c(C)c(C)n2C	28%[46.1 µM]	?	nt	nt	-2.9%	nt	57%[activator]	nt
CC(C)Nc1nc(-c2ccccc2)nnc1-c1ccccc1	nt	nt	-3%	-7%	nt	-2%	-3%	nt
CCN(CC)C(=O)COc1ccc(/C(C)=N/NC(=O)c2ccccc2-n2cccc2)cc1	-13%	nt	3%	12%	nt	20%	-16%	-1%
Cc1ccc(SCCNC(=O)CN(c2cccc(C)c2C)S(C)(=O)=O)cc1	?	-4%	nt	nt	-7.9%	nt	?	-20%[46.1 µM]
CCOC(=O)c1sc(=NC(=O)c2ccccc2Br)n(C)c1C	nt	nt	13%	16%	nt	3%	21%	nt
COC(=O)/C=C1\SC(=NC(=O)c2ccc(C)cc2)NC1=O	nt	nt	-3%	nt	nt	1%	-26%	25%[46.1 µM]
CC1CCN(S(=O)(=O)c2ccc3c(c2)oc(=O)n3C)CC1	-3%[46.1 µM]	nt	3%	2%	nt	2%	?	-14%[46.1 µM]

Next part.
SMILES	Lassa entry inh	Cruzain inh noDet	RE007 growth inh	NS1 inh	Cruzain inh Det	SARS PLP yeast	2A StopGo	Marburg entry inh
O=C(CCN1C(=O)/C(=C/c2ccccc2)SC1=S)N1CCCCCC1	?	nt	13%	-1%	nt	-3%	-26%	-11%[46.1 µM]
COCCN(C(=O)CSc1nc2ccc(OC)cc2[nH]1)c1c(N)n(Cc2ccccc2)c(=O)[nH]c1=O	2%	nt	-9%	nt	nt	-4%	-4%	-2%
Cc1c(CCNC(=O)Cc2ccc(F)cc2)sc2nc(-c3ccc(F)cc3)nn12	-1%[46.1 µM]	-9%	nt	nt	-0.1%	nt	-12%	nt
CCc1nnc(NC(=O)CSc2nc3ccccc3s2)s1	-3%	?	1%	-14%	-2.3%	-1%	7%	-13%
COc1nc(C)cc(C)c1S(=O)(=O)c1ccccc1C	12%[46.1 µM]	nt	1%	-4%	nt	3%	-2%	-12%[46.1 µM]
COc1ccc(N2CCN(C(=O)CSc3ccccc3)CC2)cc1	-19%	-7%	-6%	-15%	1.9%	nt	nt	21%
COc1ccc(NS(=O)(=O)c2cccc(C(=O)OCC(=O)Nc3cc(C)on3)c2)cc1	-23%	6%	1%	-1%	-2.1%	5%	64%[activator]	-4%
CC1(C)OC(=O)C(=NNc2ccc(Cl)cc2)C(=O)O1	22%	-2%	-15%	-11%	-1.8%	11%	0%	?
COc1ccc(N2CCN(CC(O)COc3c(OC)cccc3OC)CC2)cc1 (configuration not stated)	-14%[46.1 µM]	-7%	-8%	3%	-3.4%	6%	-10%&0%	9%[46.1 µM]
CCCCOc1cccc(C2C(C(=O)c3ccc(C)o3)=C(O)C(=O)N2c2nnc(C)s2)c1 (configuration not stated)	nt	nt	-8%	20%	nt	-2%	-18%	nt
Cc1cccc([C@@H]2[C@@H]3C(=O)N(Cc4ccccc4)C(=O)[C@@H]3[C@]3(CC(C)C)C(=O)N(c4cccc(Cl)c4)C(=O)N23)c1	nt	nt	7%	-21%	nt	6%	-26%	nt
CN(C)CCC(=O)N1c2ccccc2Sc2ccc(C(F)(F)F)cc21	nt	nt	-11%	-7%	nt	-5%	-16%	nt
COc1ccc(OC)c(NC(=O)CSc2nc(N)c(-c3ccccc3)c(=O)[nH]2)c1	1%	2%	10%	-14%	6.4%	7%	-8%	-13%
CCOC(=O)CSc1nnc(Cc2ccc(OC)cc2)n1-c1ccccc1	2%	2%	3%	-4%	3.0%	-1%	8%	7%
NS(=O)(=O)c1ccc(-c2ccc(/C=C3\SC(=S)N(C4CCS(=O)(=O)C4)C3=O)o2)cc1 (configuration not stated)	nt	nt	-13%	-3%	nt	0%	?	nt
Cc1ccc2[nH]c(=O)c(CN(CC3CCCO3)S(=O)(=O)c3cccc4nsnc34)cc2c1 (configuration not stated)	-17%	19%	-12%	12%	-1.8%	1%	-15%	0%&-28%

Compound activity as filed in PubChem BioAssay.
